# Vaccinia inh = blocks a specific stage of Vaccinia orthopoxvirus infection. 89,000 tested, 0.01% active. activity change (mCherry), % (concentration not given with the values). Vaccinia-infected cells, mCherry/Venus stage reporter fluorescence; active compounds read low; some inactives read as strong as hits;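 active = mCherry past -33% and 40 or more points under the early reporter, replicates agreeing; inconclusive = past -33% without that gap or agreement; tested in A549 cells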;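 also: scaled between vehicle wells and reference inhibitor wells; 23 nL library stock went into each well; one replicate is shown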
# Vaccinia inh Venus = further read-out of Vaccinia inh, marked with its call; activity change (Venus), %; measured here: Venus reporter, other viral stage;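 negative = less Venus signal; first of two replicates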
# Active calls of the source: *; ? = inconclusive; . = no result given. This is a subset. The share of hits here may be higher or lower than overall.
Molecule | Vaccinia inh | Vaccinia inh Venus
C[C@@H]1CN([C@@H](C)CO)S(=O)(=O)c2ccc(C#Cc3cccc(F)c3)cc2O[C@@H]1CN(C)S(=O)(=O)c1cn(C)cn1 | ? | .
Cc1noc(C)c1S(=O)(=O)Nc1ccc2c(c1)C(=O)N([C@H](C)CO)C[C@H](C)[C@H](CN(C)C(=O)C1CCCCC1)OCCCC[C@@H](C)O2 | 1.0 | -7.5
O=C(NCC[C@H]1CC[C@@H](NS(=O)(=O)c2ccc(Cl)cc2)[C@H](CO)O1)c1ccccc1F | -12.9 | -7.7
C[C@@H]1CN([C@@H](C)CO)C(=O)c2cc(NC(=O)CCN3CCOCC3)ccc2O[C@H]1CN(C)C(=O)Nc1ccc(C(F)(F)F)cc1 | 11.1 | 12.5
C[C@@H]1CN([C@@H](C)CO)C(=O)Cc2cc(NC(=O)C3CCCCC3)ccc2O[C@@H]1CN(C)C(=O)Nc1ccc(C(F)(F)F)cc1 | -24.7 | -6.8
O=C(Cc1ccccn1)N1CCCCN2[C@H](CO)[C@@H](c3ccc(Br)cc3)[C@H]2C1 | 10.0 | 0.4
O=C1CN(S(=O)(=O)Cc2ccccc2)C[C@H]2[C@H](c3ccc(C#Cc4cccnc4)cc3)[C@@H](CO)N12 | -10.4 | -8.2
COc1cccc(NC(=O)N(C)C[C@H]2Oc3ncc(C4=CCCCC4)cc3C(=O)N([C@@H](C)CO)C[C@H]2C)c1 | -21.7 | -25.1
N#C[C@@H]1[C@@H](c2ccccc2-c2ccccc2F)[C@H](CO)N1C(=O)C1CCOCC1 | -20.6 | -11.1
CCCC#Cc1ccc([C@H]2[C@H](CO)N3C(=O)CN(C(=O)Nc4ccccc4F)C[C@@H]23)cc1 | 12.4 | 3.3
COc1ccccc1NC(=O)C[C@H]1CC[C@H]2[C@@H](COc3ccc(NS(C)(=O)=O)cc3C(=O)N2C)O1 | 3.1 | 7.5
COc1ccc(NC(=O)N2CCCCN3[C@H](CO)[C@H](c4ccc(-c5ccccc5C)cc4)[C@H]3C2)cc1 | ? | .
C[C@@H]1CCCCO[C@@H](CN(C)C)[C@H](C)CN([C@H](C)CO)C(=O)c2cc(NS(=O)(=O)c3cn(C)cn3)ccc2O1 | 31.5 | 20.7
C[C@H]1CN([C@@H](C)CO)C(=O)Cc2cc(NS(=O)(=O)c3cccs3)ccc2O[C@@H]1CN(C)Cc1ccc(C(F)(F)F)cc1 | -29.9 | -25.3
CCCNC(=O)Nc1ccc2c(c1)OC[C@H](C)N(C(=O)C1CCC1)C[C@@H](C)[C@H](OC)CN(C)C2=O | 8.3 | 3.6
O=C(NC1CCCCC1)N1CC(=O)N2[C@H](CO)[C@H](c3ccc(-c4cccc(F)c4)cc3)[C@H]2C1 | ? | .
C[C@@H]1CN([C@H](C)CO)C(=O)c2cc(NS(=O)(=O)c3cn(C)cn3)ccc2O[C@@H](C)CCCCO[C@@H]1CN(C)Cc1ccncc1 | 19.4 | 10.5
C[C@@H]1CN([C@H](C)CO)C(=O)c2cc(/C=C/c3ccccc3)cnc2O[C@H]1CN(C)S(=O)(=O)c1cccs1 | -18.4 | -12.0
CO[C@@H]1CN(C)C(=O)c2ccc(NC(=O)C3CC3)cc2OC[C@H](C)N(C(=O)c2ccccc2)C[C@H]1C | 3.5 | 1.2
C[C@@H]1CN([C@@H](C)CO)C(=O)c2cccc(NS(=O)(=O)c3ccc(Cl)cc3)c2O[C@@H]1CN(C)S(=O)(=O)c1ccccc1 | -16.7 | -12.4
C[C@@H]1CN([C@H](C)CO)C(=O)c2cccc(NC(=O)C3CC3)c2O[C@H]1CN(C)C(=O)Nc1ccccc1 | 11.5 | 6.6
O=C(c1cccnc1)N1C[C@@H]2[C@H](c3ccccc31)[C@@H](CO)N2C(=O)Nc1ccc(F)cc1 | 7.2 | 12.3
COc1cccc(NC(=O)N[C@@H]2CC[C@H](CC(=O)N3CCCCC3)O[C@H]2CO)c1 | 16.7 | 16.3
CNC[C@H]1Oc2c(NC(=O)c3cnccn3)cccc2C(=O)N([C@H](C)CO)C[C@@H]1C | 13.4 | 12.2
Cc1ccccc1S(=O)(=O)NCC[C@@H]1CC[C@@H](NC(=O)C2CCC2)[C@@H](CO)O1 | 1.5 | 9.8

# Additional compounds.
Molecule | Vaccinia inh | Vaccinia inh Venus
CN1[C@@H]2c3ccc(C4=CCCCC4)c(=O)n3C[C@H]1[C@H](CO)[C@H]2C(=O)NCc1ccc(F)cc1 | 3.6 | 7.1
C[C@@H]1CN([C@H](C)CO)C(=O)CCCn2nncc2CO[C@H]1CN(C)C(=O)Nc1ccc(C(F)(F)F)cc1 | -2.2 | 4.0
Cc1noc(C)c1NC(=O)N(C)C[C@@H]1Oc2ccc(NC(=O)c3ccncc3)cc2C(=O)N([C@@H](C)CO)C[C@H]1C | 6.6 | 0.9
C[C@@H]1CN([C@@H](C)CO)S(=O)(=O)c2ccc(-c3ccccc3)cc2O[C@H]1CN(C)Cc1ccccc1C(=O)O | 2.5 | 5.3
CO[C@@H]1CN(C)C(=O)c2cc(NC(=O)NC(C)C)ccc2OC[C@@H](C)N(Cc2ccccn2)C[C@H]1C | 0.4 | 2.2
CCCN(C)C[C@H]1Oc2cc(C#C[C@H](C)O)ccc2S(=O)(=O)N([C@@H](C)CO)C[C@H]1C | -6.8 | -1.8
CCC(=O)Nc1ccc2c(c1)OC[C@@H](C)N(CCc1ccccc1)C[C@H](C)[C@H](OC)CN(C)C2=O | 1.7 | 4.9
C[C@H]1CN([C@@H](C)CO)C(=O)c2cc(NC(=O)C3CCCCC3)ccc2O[C@@H]1CN(C)C(=O)NC1CCCCC1 | 19.2 | 8.7
O=C(C1CCC1)N1CC(=O)N2[C@@H](CO)[C@H](c3ccc(C#CCc4ccccc4)cc3)[C@@H]2C1 | 13.3 | 4.8
COc1ccc(C#Cc2ccc([C@H]3[C@@H](CO)N4CCCCN(C(=O)Nc5ccccc5)C[C@@H]34)cc2)cc1 | -9.2 | 1.2
O=C(C[C@@H]1C[C@@H]2c3cc(NS(=O)(=O)c4ccc(F)cc4)ccc3O[C@@H]2[C@@H](CO)O1)NCc1ccc(Oc2ccccc2)cc1 | ? | .
NCC[C@@H]1CC[C@H](NC(=O)Nc2ccc(F)cc2)[C@@H](CO)O1 | 13.9 | 10.4
O=C(NCC[C@@H]1CC[C@@H](NC(=O)C2CCCC2)[C@@H](CO)O1)c1cnccn1 | -10.9 | 1.3
C[C@@H]1CN([C@H](C)CO)C(=O)c2cc(NC(=O)CCC(F)(F)F)ccc2O[C@@H]1CN(C)C(=O)Nc1ccc(F)cc1 | -12.7 | -14.0
COc1ccccc1CN1C[C@H](C)[C@@H](OC)CN(C)C(=O)c2ccc(NC(C)=O)cc2OC[C@@H]1C | -23.9 | -19.5
C[C@H](CO)N1C[C@H](C)[C@H](CN(C)S(=O)(=O)c2cccs2)OCCCC[C@H](C)Oc2ccc(NS(=O)(=O)c3ccccc3)cc2C1=O | -23.6 | -12.5
CCC(=O)N1[C@@H]2Cn3c(ccc(C4=CCCC4)c3=O)[C@H]1[C@@H](C(=O)N[C@@H](C)c1ccccc1)[C@@H]2CO | 0.5 | 0.3
CS(=O)(=O)N1[C@@H](CO)[C@@H](c2ccccc2)C12CN(C(=O)c1ccccc1F)C2 | -1.6 | 6.2
C[C@@H]1CCCCO[C@H](CN(C)C(=O)c2ccccc2)[C@@H](C)CN([C@H](C)CO)C(=O)c2cc(NC(=O)Nc3ccc(C(F)(F)F)cc3)ccc2O1 | -4.7 | -9.8
O=C(C[C@H]1C=C[C@@H](NC(=O)C2CC2)[C@@H](CO)O1)NCc1ccccc1Cl | 0.1 | -1.1
O=C(N[C@@H]1CC[C@H](CCNS(=O)(=O)c2ccc(Cl)cc2)O[C@H]1CO)c1cccc(F)c1 | -2.5 | -10.1
COC(=O)C[C@@H]1C[C@@H]2c3cc(NC(=O)Nc4ccccc4)ccc3O[C@@H]2[C@H](CO)O1 | 10.2 | 14.9
Cc1ccc(S(=O)(=O)N(C)C[C@@H]2OCCCC[C@H](C)Oc3ccc(NS(=O)(=O)c4ccc(F)cc4)cc3C(=O)N([C@@H](C)CO)C[C@H]2C)cc1 | -11.7 | -9.8
CNC[C@@H]1Oc2ccc(NS(=O)(=O)c3c(C)noc3C)cc2CC(=O)N([C@H](C)CO)C[C@H]1C | 19.6 | 4.8
O=C(N[C@H]1CC[C@H](CCn2cc(-c3ccccn3)nn2)O[C@@H]1CO)c1ccncc1 | 10.0 | -0.9

# The closing 4 records of the section above lead into the next.
Molecule | Vaccinia inh | Vaccinia inh Venus
COC(=O)C[C@@H]1C[C@@H]2c3cc(NC(=O)Nc4ccccc4)ccc3O[C@@H]2[C@H](CO)O1 | 10.2 | 14.9
Cc1ccc(S(=O)(=O)N(C)C[C@@H]2OCCCC[C@H](C)Oc3ccc(NS(=O)(=O)c4ccc(F)cc4)cc3C(=O)N([C@@H](C)CO)C[C@H]2C)cc1 | -11.7 | -9.8
CNC[C@@H]1Oc2ccc(NS(=O)(=O)c3c(C)noc3C)cc2CC(=O)N([C@H](C)CO)C[C@H]1C | 19.6 | 4.8
O=C(N[C@H]1CC[C@H](CCn2cc(-c3ccccn3)nn2)O[C@@H]1CO)c1ccncc1 | 10.0 | -0.9
COc1ccc2c3c(n(C)c2c1)[C@H](CO)N(Cc1nccs1)CC31CCN(C(=O)CN(C)C)CC1 | -0.9 | -5.9
COc1ccc(CN(C)C[C@H]2Oc3c(NC(=O)Nc4c(C)noc4C)cccc3C(=O)N([C@@H](C)CO)C[C@H]2C)cc1 | 5.2 | 4.9
COc1ccc(CNC(=O)C[C@@H]2C=C[C@H](NC(=O)Nc3ccc4c(c3)OCO4)[C@H](CO)O2)cc1 | 2.0 | 5.1
C[C@@H]1CN([C@@H](C)CO)C(=O)c2cc(NC(=O)C3CCCCC3)ccc2O[C@@H](C)CCCCO[C@H]1CN(C)C(=O)Nc1ccccc1 | -30.3 | -27.6
C[C@H]1CN([C@@H](C)CO)C(=O)Cc2cc(NC(=O)C3CCCCC3)ccc2O[C@H]1CN(C)Cc1ccccc1 | -23.8 | -21.6
C[C@H](NC(=O)C[C@H]1C[C@H]2c3cc(NC(=O)CN(C)C)ccc3O[C@H]2[C@@H](CO)O1)c1ccccc1 | 13.3 | -4.7
CO[C@H]1CN(C)C(=O)c2ccc(NC(=O)C3CCCC3)cc2OC[C@H](C)NC[C@@H]1C | 1.6 | 5.7
N#Cc1ccc(-c2ccc([C@H]3[C@@H](CO)N4C(=O)CN(C(=O)C5CCC5)C[C@@H]34)cc2)cc1 | -13.5 | 1.0
Cc1cccc(-c2ccc([C@H]3[C@H](CO)N4C(=O)CN(C(=O)c5cccnc5)C[C@@H]34)cc2)c1 | 10.4 | -1.2
CCC(=O)N[C@H]1C=C[C@H](CC(=O)NCC2CC2)O[C@@H]1CO | 8.0 | 1.7
Cc1noc(C)c1S(=O)(=O)Nc1cccc2c1O[C@@H](CN(C)Cc1ccccc1)[C@@H](C)CN([C@@H](C)CO)C2=O | 11.2 | 8.7
CCCNC(=O)N1CC[C@@H]2[C@@H](CO)N(C)c3ccc(-c4ccccc4)cc3[C@@H]21 | -25.3 | -30.3
C/C=C/c1ccc([C@H]2[C@H](CO)N(C(=O)COC)[C@H]2CNC(=O)CC)cc1 | 17.2 | 25.3
Cc1noc(C)c1NC(=O)Nc1ccc2c(c1)C(=O)N([C@H](C)CO)C[C@@H](C)[C@H](CN(C)C(=O)NC1CCCCC1)OCCCC[C@@H](C)O2 | 10.4 | 2.7
CC(C)CC#Cc1cnc2c(c1)C(=O)N([C@@H](C)CO)C[C@H](C)[C@@H](CN(C)C(=O)Nc1cc(F)ccc1F)O2 | -2.6 | -8.4
O=C(C[C@@H]1C=C[C@H](NC(=O)c2ccncc2)[C@@H](CO)O1)Nc1ccccc1 | 6.0 | 2.9
CCCNC(=O)NC[C@H]1[C@H](c2ccc(C3=CCCC3)cc2)[C@H](CO)N1C(=O)CC | 9.3 | 8.4
O=C(C[C@@H]1C=C[C@@H](NC(=O)Nc2ccc(C(F)(F)F)cc2)[C@@H](CO)O1)NCc1cc(F)cc(F)c1 | -14.8 | -18.4
O=C(C1CCC1)N1CCCCN2[C@H](CO)[C@H](c3ccc(C#CC4CCCC4)cc3)[C@@H]2C1 | -23.9 | -11.1
C[C@H](NC(=O)C[C@@H]1C[C@@H]2c3cc(NC(=O)CN(C)C)ccc3O[C@@H]2[C@H](CO)O1)c1ccccc1 | 5.8 | 5.7
NCC[C@@H]1CC[C@@H](NC(=O)C2CC2)[C@H](CO)O1 | -4.0 | -7.4
O=C(C1CCCC1)N1CCCCN2[C@H](C1)[C@H](c1ccc(C#CC3(O)CCCC3)cc1)[C@@H]2CO | -5.8 | -6.8
CCC(=O)Nc1ccc2c(c1)OC[C@@H](C)N(C(=O)CC1CC1)C[C@@H](C)[C@@H](OC)CN(C)C2=O | 1.2 | -0.4
C[C@@H]1CN([C@@H](C)CO)C(=O)c2cc(-c3cccc(F)c3)cnc2O[C@@H]1CN(C)C | -1.6 | -2.0
CCC(=O)N1CC2(C1)[C@@H](c1ccccc1)[C@@H](CO)N2CCC(F)(F)F | 4.1 | 1.7
C[C@H](CO)N1C[C@H](C)[C@H](CN(C)S(=O)(=O)c2ccc(Cl)cc2)Oc2ccc(NC(=O)CCN3CCOCC3)cc2C1=O | 0.4 | 2.7
COCC(=O)Nc1ccc2c(c1)C(=O)N(C)C[C@@H](OC)[C@@H](C)CN(CCc1ccccc1)[C@@H](C)CO2 | 5.2 | -3.1
O=S(=O)(c1ccccc1)N1CCCCN2[C@H](C1)[C@H](c1ccc(C#CC3CCCC3)cc1)[C@@H]2CO | -17.6 | -15.0

# Ordered by length of the SMILES (largest number first): some entries from above
Molecule | Vaccinia inh | Vaccinia inh Venus
CC(C)CC#Cc1cnc2c(c1)C(=O)N([C@@H](C)CO)C[C@H](C)[C@@H](CN(C)C(=O)Nc1cc(F)ccc1F)O2 | -2.6 | -8.4
COc1ccc(CN(C)C[C@H]2Oc3c(NC(=O)Nc4c(C)noc4C)cccc3C(=O)N([C@@H](C)CO)C[C@H]2C)cc1 | 5.2 | 4.9
CCC(=O)N[C@H]1C=C[C@H](CC(=O)NCC2CC2)O[C@@H]1CO | 8.0 | 1.7
